Screening results: PubChem, several laboratories
CSC inhib: cancer stem cell inhibition. inhibition, % at 7.5 µM. AID 2717. 300,000 compounds, 1.1% hits. cancer stem cell-like cells viability, luminescence;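 active = mean at 75% or more and at least half the replicates too; inconclusive = mean and replicates disagree; tested in HMLE shEcad cells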;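 note: 0% = median of negative and 100% = median of positive control wells; the first replicate is given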
PABP polyA inh: PABP-poly(A) binding inhibition; P11940; PABP-poly(A) RNA binding, fluorescence polarization; inhibition, % at 35 µM; 290,000 compounds, 1% hits; AID 2014;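 active = 50% or more with normal probe brightness, or confirmed in later tests; inconclusive = above 50% with abnormal brightness, or retests that disagree; inactive = below 50% or failed in later tests; about a fifth of its hits are not listed in these tables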;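 note: calls also rest on retests at 20 µM and on dose response follow-up; controls were probe without protein and protein plus probe with vehicle; some compounds called inactive have numbers as strong as hits; many hits fall short of the cut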
Target sequence (P11940 whole entry, looked up): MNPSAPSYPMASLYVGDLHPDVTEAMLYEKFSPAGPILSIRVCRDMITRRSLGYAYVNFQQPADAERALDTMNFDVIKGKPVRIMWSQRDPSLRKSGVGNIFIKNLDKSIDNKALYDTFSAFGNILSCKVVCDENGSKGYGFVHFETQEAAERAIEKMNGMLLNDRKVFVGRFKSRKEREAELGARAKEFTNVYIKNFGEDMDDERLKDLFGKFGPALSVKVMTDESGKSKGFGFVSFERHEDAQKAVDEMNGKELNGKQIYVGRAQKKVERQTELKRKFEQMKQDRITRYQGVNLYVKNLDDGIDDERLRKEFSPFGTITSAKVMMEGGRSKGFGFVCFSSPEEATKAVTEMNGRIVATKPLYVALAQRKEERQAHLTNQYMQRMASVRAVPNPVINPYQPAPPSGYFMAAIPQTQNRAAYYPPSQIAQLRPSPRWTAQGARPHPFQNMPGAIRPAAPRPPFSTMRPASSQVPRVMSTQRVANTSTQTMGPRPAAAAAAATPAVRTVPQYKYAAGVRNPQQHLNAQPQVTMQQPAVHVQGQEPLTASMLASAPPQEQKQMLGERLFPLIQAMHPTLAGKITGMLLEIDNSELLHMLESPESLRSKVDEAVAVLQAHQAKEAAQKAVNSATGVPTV
Rce1 inh: blocks yeast Ras-converting enzyme; Q03530; yeast membranes, quenched prenylated peptide cleavage fluorescence; calls only; 290,000 compounds, 0.27% hits; AID 2563;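 active = fall in fluorescence gain of 50% or more versus controls, with final raw signal at or below 3038400; inconclusive = same 50% fall but final raw signal above 3038400; inactive = fall in fluorescence gain under 50%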;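 note: plate controls were neutral control wells for no effect and wells lacking membranes for full effect; tested at 10 µM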
Env fusion inh: HIV envelope-mediated fusion inhibition | 360,000 compounds, 1.1% hits | HeLa-JRFL Env/CEM21 cell fusion, luciferase | inhibition, % at 12.3 µM;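 active = mean replicate inhibition score of at least 50 and every replicate individually at or above 50; inconclusive = only one of the two criteria met; inactive = mean below 50 and not all replicates reaching 50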;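 note: 0% = plate neutral controls and 100% = maraviroc near 300 nM; one replicate is shown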
eIF4H FP inh: inhibitors of RNA binding by human eIF4H; 290,000 compounds, 0.94% hits; eIF4H fluorescence polarization binding assay; inhibition, % at 35 µM;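 active = 50% or more with normal probe brightness, or confirmed in later tests; inconclusive = above 50% with abnormal brightness, or retests that disagree; inactive = below 50% or failed in later tests; about a fifth of its hits are not listed in these tables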;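 note: calls also rest on retests at 20 µM and on dose response follow-up; 0% = protein and probe with vehicle and 100% = probe without protein; strong numbers were not always called active; many hits fall short of the cut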
Yeast UUG start: yeast start codon fidelity modulation | 350,000 compounds, 0.13% hits | S. cerevisiae UUG-firefly luciferase reporter, luminescence/redox ratio | activity score, % at 18.7 µM;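 active = replicate mean at a twofold rise or more, about +100% in these data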;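 note: firefly luciferase made from a UUG start codon reports start codon fidelity; reporter light over untreated wells divided by growth signal over untreated wells; some hits fall short of that in this replicate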
MT1-MMP act inh: inhibitors of human MT1-MMP activation; 360,000 compounds, 0.061% hits; P50281; HT1080 RFP-PRO-GFP cells, GFP/RFP ratio fluorescence, overnight; percent of plate control window, DMSO zero; GFP/RFP ratio change, % at 20 µM; AID 651647;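 active = GFP/RFP ratio change of at least 30% with cell ATP level not reduced by more than half and red fluorescence within 50% of control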; note: strong numbers were not always called active
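Assay system: HT1080 RFP-PRO-GFP cells. Benchmarks: DMSO vehicle wells and RFP-L50D-GFP reporter cell wells. Times: overnight cell settling, then overnight compound exposure, 37 °C, 5% CO2. Compound: 20 µM single dose, 1% DMSO. Read-out basis: GFP/RFP fluorescence ratio.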
MT1-MMP act inh RFP: further read-out of MT1-MMP act inh, marked with its call; RFP signal change, %; measured here: RFP expression control read;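 0 = vehicle wells; hits needed this value within 50% of zero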
Active calls of the source: *; i = inactive; ? = inconclusive; . = no result given; + = active, no number. The list is partial; count on the stated rates, not on these rows.

SMILES	CSC inhib	PABP polyA inh	Rce1 inh	Env fusion inh	eIF4H FP inh	Yeast UUG start	MT1-MMP act inh	MT1-MMP act inh RFP
O=C1CCN(Cc2ccccc2)CCN1[C@H](CSc1ccccc1)Cc1ccccc1	17.8	-0.1	+	-28.5	-3.0	8.7	3.1	-5.6
CCc1ccc(/C=N/Nc2ncnc3nc[nH]c23)cc1	7.9	0.4	i	-24.0	-17.0	.	1.4	-4.6
O=C1CSC(c2ccccc2F)N1CCN1CCCCC1 (configuration not stated)	-1.0	1.6	i	-55.5	-11.6	-20.1	1.6	3.6
COCc1ccc(C(=O)N(C)C2CCCN(Cc3ccccc3F)C2)o1 (configuration not stated)	3.8	12.0	i	-8.1	1.3	-22.9	-0.2	2.9
CCOc1ccc(NC(=S)N2CCC(C(N)=O)CC2)cc1	-9.6	0.3	i	2.1	-5.5	-27.3	2.3	4.4
COc1ccc(CNC(=O)COC(=O)c2ccccc2OCC(=O)Nc2ccc(SC(F)F)cc2)cc1	-6.8	9.3	i	-4.2	-4.7	-20.6	1.4	6.6
COc1ccc(OC)c(C2NC(=S)NC(C)=C2C(=O)Nc2ccccn2)c1 (configuration not stated)	.	-1.6	i	10.7	8.4	.	0.4	3.9
Cc1ccc(-n2c(=O)c3sccc3n(CC(=O)N3CCCC3)c2=O)cc1	-6.5	-0.7	i	15.8	-8.5	-9.0	-0.3	1.9
Cc1cccc(CC(=O)N2CCN(C(=O)c3ccco3)CC2)c1	-3.0	-6.1	i	5.6	-4.9	-24.3	2.4	7.9
NS(=O)(=O)c1cccc(NC(=O)C2CC(=O)N(Cc3ccco3)C2)c1 (configuration not stated)	-5.2	-2.6	i	-4.7	-11.3	3.7	1.9	3.9
Cc1ccc2oc(Nc3nc(-c4ccccc4)cc(=O)[nH]3)nc2c1	.	-2.6	i	-78.2	1.1	.	.	.
Cc1cc(=O)c2c(o1)CC(C)(C)CC2=O	-10.4	2.1	i	.	4.0	-18.2	-2.9	6.3
COc1ccc(/C(C)=N/NC(=O)c2ccc(NS(=O)(=O)c3cccs3)cc2)cc1	7.7	-1.3	i	26.0	6.7	-0.3	-10.5	-7.4
Cc1nc(N)sc1-c1csc(Nc2ccc(Cl)cn2)n1	7.1	1.0	i	.	37.1	16.4	-10.8	3.3
COc1ccc(S(=O)(=O)NNC(=O)c2cc3ccccc3o2)cc1	7.4	-1.9	i	3.4	-11.0	.	2.0	2.0
Cn1c(CC(=O)Nc2ccc(Cl)c(Cl)c2)nnc1SCC(=O)NCc1ccccc1	-15.2	6.3	i	-16.4	-2.9	.	4.6	3.9
CCOc1ccc(N(CC(=O)Nc2ccc(C)cc2)S(C)(=O)=O)cc1	-16.1	5.5	i	-49.7	-2.0	-6.3	-1.1	-1.9
CN1C(=O)[C@@H]2[C@@H]3C[C@@H]([C@H]4ON=C(c5ccccc5OCC#N)[C@@H]34)[C@@H]2C1=O	-12.8	-1.6	i	0.9	-8.7	10.4	-4.2	-0.9
O=C(OCC(=O)N1CCN(c2ccccc2)CC1)c1cccc(Cl)c1	-7.0	-15.1	i	-12.8	-2.7	-11.2	-0.3	4.8
CN1CCC(CC(C(=O)N2CCCC2)(c2ccccc2)c2ccccc2)C1 (configuration not stated)	.	.	.	-13.9	.	6.5	-10.8	-3.5
Cc1csc(=Nc2cccnc2)n1CC1CCCCC1	-1.2	-4.9	i	0.3	-12.2	.	-0.9	3.5
CSc1ccccc1N1CCN(C(=O)Nc2ccc3c(c2)NC(=O)CO3)CC1	-3.2	-6.2	i	20.3	-3.6	-19.4	0.6	-8.6
O=C1CSC(c2ccc(F)c(F)c2)N1c1ccccc1F (configuration not stated)	-4.4	10.5	i	18.0	1.5	-9.6	-2.3	-2.6
O=C(NNC(=O)c1nn(-c2ccc(F)cc2)ccc1=O)c1ccccc1Cl	11.8	3.0	i	-4.3	9.0	-12.8	0.6	-0.7
OC[C@H]1O[C@H](OC[C@H]2OC(O)[C@H](O)[C@@H](O)[C@@H]2O)[C@H](O)[C@@H](O)[C@@H]1O (some centres not stated)	-7.1	.	.	-3.1	.	-4.4	-3.0	1.9
Cn1cc(S(=O)(=O)N2CCN(Cc3ccccc3)CC2)c(=O)n(C)c1=O	-16.2	-4.3	i	-19.7	-8.5	-12.0	.	.
COc1cc(/C=N/NC(=O)COc2cc(C)cc(C)c2)ccc1OS(=O)(=O)c1ccc(C)cc1	8.1	1.3	i	44.3	-10.1	.	-4.5	-16.9
Cc1cc(C)c(NC(=O)CN2CCC(NC(=O)NC3CCCCC3)CC2)c(C)c1	-9.3	-0.6	i	.	-3.3	.	.	.
CNC(=S)NNC(=O)c1ccc2c(c1)OCO2	8.3	-4.5	i	-0.2	8.2	.	-1.5	1.9
CCOC(=O)c1nn(-c2ccc(C)cc2)cc1C(=O)c1ccccc1	-1.1	2.1	i	-292.1	3.3	-13.0	-2.4	-5.0
Cc1ccc(OCCCC(=O)Nc2ccc(S(N)(=O)=O)cc2)cc1	.	-16.3	i	4.8	-3.3	-7.5	-2.5	-2.3
O=[N+]([O-])c1ccc(NCCCO)c(C(F)(F)F)c1	-14.5	-4.9	i	-42.3	1.3	-17.2	3.2	3.1
CN(CC(=O)Nc1ccccc1Br)C(=O)c1ccc2c(=O)n3c(nc2c1)CCC3	-11.2	.	.	0.8	.	-24.0	0.3	6.2
Cc1cc(C)cc(NC(=O)CSCc2nc3c(nnn3Cc3ccc(F)cc3)c(=O)[nH]2)c1	-0.8	.	i	29.3	.	-14.5	3.3	-2.8
CN1C(c2ccccc2)=NO[C@]1(C)c1ccccc1	-1.6	.	i	11.3	.	.	-0.3	-2.7
Cc1cc(NC(=O)CCC(=O)N(CC(=O)NC2CCCC2)c2ccccc2)no1	-2.6	-0.4	i	-33.1	-6.0	-0.7	5.6	4.2
COc1ccc(CCNC(=O)c2cc(S(=O)(=O)N(C)C)ccc2N2CCCC2)cc1OC	-1.2	8.2	i	-5.4	-8.6	10.5	-0.4	-1.2
Cc1ccc(/C=N/N2CCN(Cc3cccc4ccccc34)CC2)o1	.	2.5	i	.	-1.1	-13.7	0.5	-6.6
COc1ccc(Cc2nnc(NC(=O)C3CC(=O)N(c4ccc(OC)cc4)C3)s2)cc1 (configuration not stated)	0.5	14.0	i	0.0	5.3	-9.9	1.8	-1.5
CCN(CC)S(=O)(=O)c1ccc(N2CCOCC2)c(NC(=O)C(=O)c2c(-c3ccccc3)cc3ccccn23)c1	-5.7	-3.2	i	28.4	-6.6	-8.3	1.3	-4.5

Next section; it opens with the five that closed the last part.
SMILES	CSC inhib	PABP polyA inh	Rce1 inh	Env fusion inh	eIF4H FP inh	Yeast UUG start	MT1-MMP act inh	MT1-MMP act inh RFP
Cc1cc(NC(=O)CCC(=O)N(CC(=O)NC2CCCC2)c2ccccc2)no1	-2.6	-0.4	i	-33.1	-6.0	-0.7	5.6	4.2
COc1ccc(CCNC(=O)c2cc(S(=O)(=O)N(C)C)ccc2N2CCCC2)cc1OC	-1.2	8.2	i	-5.4	-8.6	10.5	-0.4	-1.2
Cc1ccc(/C=N/N2CCN(Cc3cccc4ccccc34)CC2)o1	.	2.5	i	.	-1.1	-13.7	0.5	-6.6
COc1ccc(Cc2nnc(NC(=O)C3CC(=O)N(c4ccc(OC)cc4)C3)s2)cc1 (configuration not stated)	0.5	14.0	i	0.0	5.3	-9.9	1.8	-1.5
CCN(CC)S(=O)(=O)c1ccc(N2CCOCC2)c(NC(=O)C(=O)c2c(-c3ccccc3)cc3ccccn23)c1	-5.7	-3.2	i	28.4	-6.6	-8.3	1.3	-4.5
O=C1NCCCC1C(=O)NCCN1C(=O)CCC1=O (configuration not stated)	.	-3.5	i	.	-4.8	-16.8	-3.2	-0.6
CCOc1ccccc1C(=O)N[C@H](C(=O)OCc1cc([N+](=O)[O-])cc2c1OCOC2)C(C)C	-4.2	-9.7	i	22.6	-6.3	-7.9	-6.7	-15.2
Clc1ccc(-c2cc3ccccc3[nH]2)cc1	14.1	4.0	i	-38.9	0.7	-15.5	1.2	-3.4
NS(=O)(=O)c1ccc(-c2ccc(/C=C3\C(=O)Nc4cc(Cl)ccc43)o2)cc1	.	22.0	i	34.3	5.2	-13.5	-3.5	-0.1
Cc1ccc(N/C=C/C(=O)c2ccccc2)cc1Br	-1.2	5.5	i	-124.5	-6.4	-22.6	-5.3	1.7
COc1ccc(OC)c(-c2csc(NC(=O)c3ccc(F)cc3)n2)c1	85.7*	-2.4	i	-13.6	-5.5	-22.7	-6.2	-14.2
CCNC(=O)C1(c2ccccc2)CCCC1	2.6	3.5	.	-20.4	2.6	-10.3	-0.1	4.9
CC(=O)c1sc(=S)n(Cc2ccccc2)c1C	6.2	-0.3	i	-6.9	-3.0	-12.1	0.8	4.5
CC(C)C(=O)Nc1c(C(=O)N2CCN(c3ncccn3)CC2)oc2ccccc12	7.1	5.4	i	-3.7	0.4	4.1	4.3	1.7
CSCC[C@H](NS(=O)(=O)c1ccc(C(C)=O)cc1)c1nnc2ccccn12	-25.1	17.9	i	7.8	41.1	-2.0	-0.9	2.1
C[C@H]1CNC(=O)c2c(C(=O)Nc3ccc(CNC(=O)OC(C)(C)C)cc3)ncn21	.	.	.	?	.	-18.7	-1.0	-20.4
NS(=O)(=O)c1ccc(NC(=O)CSc2ncnc3ccccc23)cc1	.	-7.6	.	23.4	-0.4	.	-6.4	-4.5
O=c1c(-c2ccc(Cl)cc2)coc2c(CN3CCOCC3)c(O)ccc12	-10.3	48.7	i	.	3.4	-4.0	0.1	-1.1
COc1cc2ccccc2cc1C(=O)OCC(=O)NC1CCS(=O)(=O)C1 (configuration not stated)	0.3	12.3	i	-4.2	0.3	.	1.1	4.0
CN(C)c1ccc(C(=O)NCCCSc2ccccc2)cc1	2.5	-1.7	i	-15.1	-7.2	5.9	1.0	-0.4
c1nc(N2CCCC2)c2[nH]cnc2n1	-26.2	-15.1	i	-3.7	-4.1	-20.4	-6.1	3.5
O=C(Cn1cnc2c(nnn2Cc2ccc(F)cc2)c1=O)NCc1ccccc1	5.0	-14.1	i	23.3	-12.9	.	1.8	0.6
CN1CCn2cnc(C(=O)Nc3ccc(CNC(=O)OC(C)(C)C)cc3)c2C1=O	.	.	.	8.3	.	-12.6	0.4	3.8
COc1ccc(-n2c(=O)c(NC(=O)c3ccccc3)c3n(c2=S)CCCCC3)cc1	9.5	-1.2	i	-20.7	6.1	.	3.9	-1.6
CCCC(CCC(=O)Nc1cccc([N+](=O)[O-])c1)C(=O)O (configuration not stated)	-3.4	-3.6	i	-45.4	2.2	-12.9	3.1	3.7
CC1CCN(C(=O)COc2coc(CN3CCc4ccccc43)cc2=O)CC1	-12.2	.	i	13.1	.	-7.2	0.7	1.0
COc1ccc(N2CCN(C(=O)CNC(=O)Cc3ccccc3)CC2)cc1	-13.8	-7.2	i	-7.7	-12.9	-4.9	-2.3	-2.1

In a second layout: results already given
Second line of a record: CSC inhib	PABP polyA inh	Rce1 inh	Env fusion inh	eIF4H FP inh	Yeast UUG start	MT1-MMP act inh	MT1-MMP act inh RFP
CC1CCN(C(=O)COc2coc(CN3CCc4ccccc43)cc2=O)CC1
    -12.2	.	i	13.1	.	-7.2	0.7	1.0
COc1ccc(N2CCN(C(=O)CNC(=O)Cc3ccccc3)CC2)cc1
    -13.8	-7.2	i	-7.7	-12.9	-4.9	-2.3	-2.1
